Bead autofluor – compound fluorescence in toxin protease inhibitor counterscreen | compound autofluorescence counterscreen, microsphere flow cytometry; stronger effect = higher value | 360,000 compounds, 3.1% hits | fluorescence intensity (no concentration beside the values);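 active = at least 3 SD above the mean of all compounds, about 16000 in these data; inconclusive = too few beads counted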;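 also: 100 nL of 1 mM stock went into each well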
Mtb hypoxia inh – reduces hypoxia-regulated biosensor signal in M. tuberculosis; AID 1159583; M. tuberculosis hypoxia-regulated fluorescent reporter, fluorescence; 300,000 compounds, 0.1% hits; fluorescence inhibition, % (test concentration not listed);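 active = 35 to 45% if threefold the growth effect, above 45% if 1.5-fold the growth effect; inactive = the rest, general growth blockers included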;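 also: wells of about 50 µL received 100 nL stock; 0% = vehicle wells and 100% = reference inhibitor wells; whole bacteria with a GFP reporter of the hypoxia response; strong numbers were not always called active; many hits fall short of the cut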
Sa RN4220 lethal – kills Staphylococcus aureus RN4220. S. aureus RN4220 growth, OD600, 16 h. inhibition, % (concentration not given with the values). 330,000 compounds, 0.33% hits. AID 1259311;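 active = z-score of -3 or lower and OD600 up to 0.18 on both plates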;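 also: plate controls were untreated cells for no effect and reference antibiotic for full effect; stock transfer was 100 nL into about 80 µL; one replicate is shown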
ugtP null kill – kills S. aureus RN4220 lacking UgtP; S. aureus RN4220 ugtP deletion, OD600 growth, 16 h; some inactives read as strong as hits; growth inhibition, % (test concentration not listed); 330,000 compounds, 0.54% hits;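 active = z-score under -3 and OD600 up to 0.15 on both plates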;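 also: plate controls were untreated wells for no effect and antibiotic for full effect; wells of about 80 µL received 100 nL stock; the first replicate is given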
PrP 5UTR inh – suppresses PrP 5' UTR mRNA reporter expression. inhibition, % (concentration not given with the values). 340,000 compounds, 0.35% hits. cell-based PrP 5' UTR mRNA reporter, plate reader;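 active = every replicate at 50% or more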;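 also: 0 = median of the neutral control wells; tested in H4 reporter cells; numbers are from one replicate; inactives centre near -14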
BJeLR viability – kills HRASV12-expressing BJeLR cells. inhibition, % (test concentration not listed). 300,000 compounds, 0.17% hits. AID 1554. BJeLR (HRASV12) viability, CellTiter-Glo ATP luminescence, 48 h; reference of the scale not given here;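 active = replicate mean above 50%; inconclusive = above 50% but judged a plate artefact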;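 also: 50 nL library stock added to about 25 µL; numbers are from one replicate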
Mtb hypoxia inh growth – second read-out of Mtb hypoxia inh, no call of its own (marks repeat the call); growth inhibition, %; measured here: M. tuberculosis growth (absorbance);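 0% = vehicle and 100% = reference antibiotic; read after six days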
Active calls of the source: *; ? = inconclusive; . = no result given.

SMILES | Bead autofluor | Mtb hypoxia inh | Mtb hypoxia inh growth | Sa RN4220 lethal | ugtP null kill | PrP 5UTR inh | BJeLR viability
CCOc1cc(C(=O)Oc2cc(C)[nH]c(=O)c2[N+](=O)[O-])cc(OCC)c1OCC | 5260 | 5 | 0 | 2.7 | 7 | -17 | -6
Cc1cc(C)nc(N/N=C/c2ccccc2OCC(=O)O)n1 | 4375 | . | . | . | . | -25 | 0
O=C(NN=Cc1ccc(Br)o1)c1cccnc1 | . | 0 | 1 | 0.7 | 0 | . | .
COc1ccc(CN(Cc2cc3cc4c(cc3[nH]c2=O)OCO4)C(=O)NC2CCCCC2)cc1 | 2933 | 0 | 5 | 2.3 | -6 | -13 | -9
O=C(Nc1ccccc1)/C(=C/c1ccc(F)cc1)NC(=O)c1ccco1 | 3519 | 9 | 0 | 6.9 | -2 | -37 | -7
COc1cccc(CN(CC(=O)NC2CCCCC2)C(=O)c2csnn2)c1 | 2909 | 2 | -6 | 5.7 | 6 | -17 | -1
CCOc1ccc2c(c1)c1nnc(SCC(=O)NC3CC3)nc1n2C | 3615 | 2 | 2 | 1.7 | 5 | -22 | -9
Cc1ccc(N(C)C(=O)c2cc(S(=O)(=O)N3CCCC3)cn2C)cc1 | 4215 | -1 | 1 | 7.1 | 4 | -3 | -9
COc1ccc(C(=O)n2cnc3ccccc32)cc1[N+](=O)[O-] | 3660 | 5 | 7 | 2.5 | 7 | -20 | 2
Nc1ccccc1C(=O)N(Cc1ccccc1)Cc1ccccc1 | 10817 | 6 | 4 | 9.2 | 2 | -9 | 1
CCOC(=O)N1CCC(NC(=O)Cn2cc3c(n2)CCCC3)CC1 | 6329 | . | . | 2.5 | 10 | -14 | -5
O=C(c1cc(-c2ccccc2Cl)on1)N1CCN(C(=O)c2ccco2)CC1 | 2430 | -2 | -2 | -4.4 | -2 | 2 | 1
COc1ccccc1CNC(=O)CCCOc1cc(=O)n(C)c2ccccc12 | 3748 | 5 | -6 | -0.4 | -3 | -5 | -3
CN(CC(=O)Nc1ccc(F)c(F)c1)S(=O)(=O)c1cccs1 | 3612 | 1 | 2 | 1.0 | 6 | -20 | -2
CCN(CC)c1ccc2c(-c3ccc(S(=O)(=O)O)cc3S(=O)(=O)[O-])c3ccc(=[N+](CC)CC)cc-3oc2c1 | 3975 | 39* | -32* | -2.9 | -8 | 3 | 27
COc1ccc2c(C)cc(SCC#N)nc2c1 | 16543* | 3 | -2 | 11 | 2 | -12 | -3
CCOC(=O)c1c(C)n(C)c2ccc(O)c(CN3CCC(C)CC3)c12 | 3199 | . | . | . | . | -22 | 11
CC(=O)Nc1ccc(C(=O)N(C2=NC(C)CS2)c2ccc(Cl)cc2)cc1 (configuration not stated) | 5157 | 8 | -4 | 1.2 | 4 | -17 | -2
Cc1ccc(S(=O)(=O)C=C2NC(=O)CS2)cc1 | . | -7 | 5 | 2.7 | 1 | . | .
CC(=O)Nc1ccc(S(=O)(=O)C(C#N)c2nc3ccccc3nc2NCCO)cc1 (configuration not stated) | 3332 | 7 | 2 | 1.2 | -3 | -8 | 2
O=S(=O)(c1cccc(C(F)(F)F)c1)c1ccc(O)cn1 | 6511 | 17 | 7 | 5.0 | 11 | -8 | 4
CCC(=O)Nc1ccc(C(=O)CSc2nc(N)cc(N)n2)cc1 | 4154 | 6 | 0 | 4.3 | 12 | -3 | -3
CCc1ccc(Nc2nnc(SC(C)C(=O)NC3CC3)s2)cc1 (configuration not stated) | 3146 | 8 | 13 | 1.2 | -1 | -12 | .
CSc1nnc(C)c(/C=C/NOCc2cccc(F)c2)n1 | 4087 | 2 | -1 | 6.9 | 2 | -6 | -8
CCOc1ccc(-n2c(=O)[nH]cc(C(=O)N3CCc4ccccc43)c2=O)cc1 | 9008 | -6 | -1 | -0.2 | 2 | -20 | 8
Cc1cc(C)n(N=Cc2c[nH]c3ccccc23)c(=O)c1 | . | 2 | 8 | 5.6 | -5 | . | .
O=C(NCC(c1ccco1)N1CCN(c2ccc(F)cc2)CC1)c1cccs1 (configuration not stated) | ? | 3 | 3 | 2.3 | 9 | -17 | -5
CCN(CC)Cc1c(C(=O)N/N=C/c2ccc(OCc3ccccc3C)cc2)nnn1-c1nonc1N | 5750 | . | . | . | . | -11 | -1
O=C(CCCOc1ccccc1)Nc1cccc(S(=O)(=O)N2CCOCC2)c1 | 3731 | -10 | -4 | 2.3 | 1 | -5 | .
O=C1CCC(c2ccccc2)=NN1Cc1c(F)cccc1Cl | 4443 | -6 | 9 | 7.1 | 6 | -4 | 9
O=C1C(Cl)=C(NCC2CCCO2)C(=O)N1C1CCCCC1 (configuration not stated) | 8780 | -3 | 4 | 3.6 | -5 | -77 | 2
C[C@H]1CCC[C@]2(O[C@H](CCO)C[C@@H](O)[C@@H]2O)O1 | 4001 | . | . | . | . | -1 | -5
O=C(c1sc2ccccc2c1Cl)N1CCN(c2ccccc2F)CC1 | 2527 | 13 | 1 | 0.8 | 14 | -35 | -8
COc1ccc(CCNC(=O)CSc2ccc3ccccc3c2)cc1OC | 9855 | 12 | 5 | 1.7 | 28 | 8 | -18
COc1ccc(C(=S)N2CCCCC2)cc1Br | 2185 | 3 | 12 | 7.6 | 0 | -19 | -9
CC(C)(C)c1ccc(Cn2nnc3c(=O)[nH]c(C4CCCN(C(=O)c5cccs5)C4)nc32)cc1 (configuration not stated) | 3863 | 2 | 7 | -0.9 | 31 | -9 | 1
Cc1ccc(C(=O)c2c3ccc([N+](=O)[O-])cc3[n+]([O-])n2CCCC(N)=O)cc1 | 4204 | 26 | 18 | 45 | 60 | -31 | 4
O=C(/C=C/c1cccnc1)c1ccc(O)cc1 | 4996 | 14 | 4 | 3.5 | -3 | -10 | -1
CS(=O)(=O)N(Cc1ccccc1Cl)c1ccc(C(=O)NCc2ccccn2)cc1 | 2472 | 8 | 7 | 4.4 | 1 | -11 | -9
Cc1ccc(-c2noc(-c3c(C)noc3C)n2)cc1 | 6536 | -7 | -6 | -0.1 | 0 | -42 | -13
O=c1cc(CN2CCOCC2)c2c(ccc3ccccc32)o1 | 7857 | 9 | 8 | 5.1 | 10 | -5 | .
COc1ccc(CC(=O)n2[nH]c(=O)c3ccccc3c2=O)cc1OC | 5957 | 4 | 10 | 1.6 | 4 | -16 | 0
NC(=O)C1(Nc2ccc([N+](=O)[O-])cc2)CCCC1 | 3310 | 17 | 9 | -4.4 | 3 | -22 | .
COc1cccc(CCC(=O)N2CCC(n3nccc3NC(=O)CC(C)C)CC2)c1 | 5487 | 6 | 1 | 1.5 | 8 | -13 | 2
COc1ccc(N2C3=C(CC4=C2CCCC4=O)C(=O)CCC3)cc1 | 2789 | . | . | -2.1 | -7 | 11 | 7
COc1cccc(-c2nc(CS(=O)(=O)CC(=O)Nc3cc(OC)ccc3OC)c(C)o2)c1 | 4194 | -6 | -7 | 5.7 | -7 | 6 | -5
C=CCn1c(SCC(=O)c2c(N)n(CCC)c(=O)n(C)c2=O)nnc1-c1ccncc1 | 4111 | 11 | 12 | 4.9 | 3 | -22 | 8
C=CCn1c(SCC(=O)N(CC)c2c(N)n(Cc3ccccc3)c(=O)[nH]c2=O)nnc1-c1ccccc1OC | 3867 | 13 | 7 | 1.7 | 3 | -10 | .
N#Cc1c(-c2ccccc2)ccn(Cc2ccc(Cl)cc2)c1=O | 4355 | . | . | -0.2 | -5 | -28 | -1
CN(C(=O)c1ccc(F)cc1)c1ccc(OCC(=O)Nc2ccccc2C(=O)O)cc1 | 3853 | -10 | 13 | 2.4 | -3 | -7 | .
Cc1nnc(NN=Cc2ccc(O)c([N+](=O)[O-])c2)[nH]c1=O | . | 6 | 4 | 1.8 | 2 | . | .
CCN(CC(=O)NCc1cccs1)c1ccc(S(=O)(=O)N2CCCC2)cn1 | 4801 | -10 | 4 | 2.5 | 10 | . | -10
CCc1nnc(NS(=O)(=O)c2ccc(NC(=O)c3ccc(S(=O)(=O)N(CC)CC)cc3)cc2)s1 | 3619 | 9 | 16 | 1.2 | 5 | -1 | 3
CC1CN(S(=O)(=O)c2cc(C(=O)N3CCCCC3C)ccc2Cl)CC(C)O1 (configuration not stated) | 4012 | 7 | 11 | 0.4 | 2 | -17 | .
CCn1nc(C)c(NC(=O)CCCSc2nc(-c3ccco3)cc(C(F)(F)F)n2)c1C | 2354 | 13 | 14 | 3.3 | -6 | 3 | 1
CC1Cc2ccccc2N1C(=O)C1CCN(S(=O)(=O)c2cccs2)CC1 (configuration not stated) | 9899 | -1 | 0 | -3.6 | 0 | -8 | 3
Cc1ccc2c(c1)NC(C(C)(C)C)CO2 (configuration not stated) | 2163 | . | . | -1.3 | -6 | -2 | 0
CCOc1ccc(OCCN2C(=O)NC(Cc3c[nH]c4ccccc34)C2=O)cc1 (configuration not stated) | 4627 | 5 | 9 | 3.3 | -1 | -17 | -3
O=C(CN(Cc1ccccc1)S(=O)(=O)c1ccccc1)N/N=C/c1ccc([N+](=O)[O-])cc1 | 10999 | . | . | . | . | 7 | -4
COc1ccc(NC(=O)c2cc3cc(OC)ccc3oc2=O)cc1 | 4269 | 2 | -5 | 1.9 | 9 | -21 | -1

Next section.
SMILES | Bead autofluor | Mtb hypoxia inh | Mtb hypoxia inh growth | Sa RN4220 lethal | ugtP null kill | PrP 5UTR inh | BJeLR viability
CCCCN(C)CCCNC(=O)c1cc(=O)[nH]c2ccc(S(=O)(=O)N3CCCCC3C)cc12 (configuration not stated) | 6897 | -6 | -2 | -5.1 | -15 | -20 | 1
COc1cc(C)ccc1OCC(=O)OCC(=O)NCC1CCCCC1 | 3937 | -2 | -1 | 10 | 1 | -12 | .
COc1ccc2c(c1)C(C)CC(C)(C)N2C(=O)Nc1ccccc1 (configuration not stated) | 4047 | -6 | -1 | 0.7 | 3 | -11 | -19
COc1ccc(N2CCN(C(=O)c3ccc(Cl)c(S(=O)(=O)N4CCOCC4)c3)CC2)cc1 | 3568 | 9 | 7 | -2.5 | 4 | 2 | .
O=S(=O)(Cc1ccccc1)N1CCN(Cc2ccc3c(c2)OCO3)CC1 | 3234 | -11 | 1 | -0.1 | -2 | -8 | 4
CCNc1nc(Cl)nc(NCc2ccccc2)n1 | 3727 | 9 | 5 | -0.9 | -20 | -4 | -4
COC(=O)c1nc(NC(=O)c2ccccc2Br)n[nH]1 | 4229 | 12 | 8 | 8.7 | -3 | -9 | .
COc1ccc(C(c2nnnn2Cc2ccccc2)N2CCN(C(=O)c3ccco3)CC2)cc1OC (configuration not stated) | 2455 | . | . | 0.1 | -5 | -20 | -3
Clc1ccc(-c2csc(N3CCOCC3)n2)cc1 | 3964 | 3 | 2 | 0.9 | -10 | -55 | -3
C/C(=N\Nc1ccc(C(=O)O)cc1)c1ccc(-n2ccnc2)cc1 | 4075 | . | . | . | . | -54 | -10
COc1cccc(OC)c1CNC(=O)CCSCc1ccccc1F | 4419 | 0 | 1 | -1.4 | 0 | 24 | 4
COc1ccc(CCNc2nc3ccccc3n3cnnc23)cc1OC | 4804 | 7 | 2 | 2.8 | 5 | -8 | -2
CSc1ncccc1C(=O)OCC(=O)NC(N)=O | 8431 | 6 | 11 | 6.3 | 6 | 8 | 18
C[C@H](CO)N1C[C@H](C)[C@@H](CN(C)S(=O)(=O)c2ccccc2)Oc2ccc(NC(=O)c3ccncc3)cc2C1=O | 3998 | 0 | 11 | -11 | -9 | -15 | .
NC(=O)CSc1nc(N)c2c3c(sc2n1)CCCCC3 | 9757 | 11 | 6 | 5.3 | -5 | -34 | 7
COc1cc(C(=O)Nc2ccc(N3CCN(C(=O)c4ccc(C)cc4)CC3)cc2)cc(OC)c1OC | 5523 | 4 | 8 | 1.8 | 7 | -16 | -2
COc1ccc(C(=O)NC2CCCc3ccccc32)cc1S(=O)(=O)N1CCOCC1 (configuration not stated) | 3345 | 13 | -4 | 13 | 6 | -15 | 6

Only PrP 5UTR inh, for some of the entries so far:
compound	PrP 5UTR inh
O=C(Nc1ccccc1)/C(=C/c1ccc(F)cc1)NC(=O)c1ccco1	-37
COc1cccc(CN(CC(=O)NC2CCCCC2)C(=O)c2csnn2)c1	-17
CCOc1ccc2c(c1)c1nnc(SCC(=O)NC3CC3)nc1n2C	-22

High-throughput results as filed in PubChem.
